Ecoli rRNA inh = inhibits bacterial ribosomal RNA function over humanized ribosomes; E. coli WT GFP vs humanized-ribosome RFP mutants, fluorescence, 24 h; active compounds read low; DMSO median 0, no signal -100; GFP signal change (wild-type ribosome), % (test concentration not listed); hit rate 1.6% among 350,000;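 active means significant combined selectivity score with lowered wild-type GFP, culture density cut under 30%, mutant RFP and density less affected; inactive means any of these conditions unmet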; further: one replicate is shown; some compounds called inactive have numbers as strong as hits
FGF22 binding = binders of recombinant human FGF22 by thermal shift. Q9HCT0. SYPRO orange fluorescence; percent of sucrose octasulfate shift, DMSO zero. calls only at 9.99 µM. hit rate 1.5% among 340,000;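 active means melting point raised past a set limit in the mean and every replicate; three in four hits are not shown here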
Target sequence (Q9HCT0 whole entry, looked up): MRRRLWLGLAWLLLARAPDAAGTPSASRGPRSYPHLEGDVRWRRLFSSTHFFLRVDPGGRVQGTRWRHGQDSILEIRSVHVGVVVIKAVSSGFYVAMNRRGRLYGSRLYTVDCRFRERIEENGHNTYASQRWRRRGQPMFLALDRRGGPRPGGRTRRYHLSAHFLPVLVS
MLL AF4-AF9 inh = inhibitors of human MLL-AF4/AF9 interaction | hit rate 0.47% among 350,000 | AlphaScreen, biotin-AF4 peptide binding to FLAG-AF9 | inhibition, % at 10 µM | AID 651704 | P42568;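 active means every replicate reaching a set inhibition limit, whatever the replicate mean, cut at about 25% in these data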;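 further: 0% = plate neutral control median and 100% = total signal loss; the record names both 10 and 1 µM as test concentration; the first replicate is given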
Target sequence (P42568 whole entry, looked up): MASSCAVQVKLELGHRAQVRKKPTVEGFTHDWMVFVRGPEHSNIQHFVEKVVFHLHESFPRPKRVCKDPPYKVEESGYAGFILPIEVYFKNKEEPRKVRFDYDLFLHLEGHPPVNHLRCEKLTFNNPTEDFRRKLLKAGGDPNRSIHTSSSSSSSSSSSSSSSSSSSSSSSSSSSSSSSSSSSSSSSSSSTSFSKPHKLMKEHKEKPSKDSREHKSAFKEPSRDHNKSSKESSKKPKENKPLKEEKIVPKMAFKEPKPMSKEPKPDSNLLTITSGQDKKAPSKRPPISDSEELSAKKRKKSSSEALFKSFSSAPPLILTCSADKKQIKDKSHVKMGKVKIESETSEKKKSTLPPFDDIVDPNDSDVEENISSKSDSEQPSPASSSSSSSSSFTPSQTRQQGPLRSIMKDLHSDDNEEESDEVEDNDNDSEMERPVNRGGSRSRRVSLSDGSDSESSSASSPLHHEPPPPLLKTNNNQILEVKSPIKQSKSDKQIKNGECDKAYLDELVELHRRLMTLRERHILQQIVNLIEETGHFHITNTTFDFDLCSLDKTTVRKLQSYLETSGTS
Ecoli rRNA inh OD600 = also measured in Ecoli rRNA inh; calls as there; OD600 change, %; measured here: OD600 growth;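 optical density of the mix in the first replicate; 0 = DMSO median and -100 = no signal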
Ecoli rRNA inh RFP = recorded beside Ecoli rRNA inh, whose call it bears; RFP signal change, %; measured here: RFP humanized mutant strains;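 first replicate; 0 = DMSO median and -100 = no signal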
* marks the source's active call; other numbers are inactive results; i = inactive; . = no result given; & = joins results of further samples.

Ecoli rRNA inh	Ecoli rRNA inh OD600	Ecoli rRNA inh RFP	SMILES	FGF22 binding	MLL AF4-AF9 inh
0.9	1.7	1.0	Cc1ccc(S(=O)(=O)Nc2ccc3c(c2)C(=O)N([C@@H](C)CO)C[C@@H](C)[C@H](CN(C)CC2CC2)OCCCC[C@H](C)O3)cc1	i	6.7
4.4	11.4	-2.8	CC(=O)N1C[C@@H]2[C@H](c3ccccc31)[C@H](CO)N2C(=O)CC1CC1	i	-17.0
-1.5	-2.1	1.6	C[C@H]1CCCCO[C@H](CN(C)C(=O)NC2CCCCC2)[C@@H](C)CN([C@@H](C)CO)C(=O)c2cc(NC(=O)c3ccncc3)ccc2O1	i	-1.3
-0.9	1.2	-2.4	C[C@H]1CCCCO[C@@H](CN(C)Cc2ccc(C(=O)O)cc2)[C@@H](C)CN([C@@H](C)CO)C(=O)c2cc(NC(=O)NC3CCCCC3)ccc2O1	i	0.5
-5.3	3.7	-0.6	CCC(=O)N1[C@H](CN(CC)C(=O)c2cccc(F)c2)[C@@H](c2ccccc2)[C@@H]1CO	i	-2.9
5.1	9.6	-0.9	Cc1ccc(S(=O)(=O)N2CCOCC2)cc1C(=O)N1CCN(c2ncccn2)CC1	i	-2.3
7.0	5.5	-2.8	CCCC(O)(c1ccccc1)C(c1ccccc1)c1ccccn1 (stereo not given)	i	-2.5
9.2	9.7	-1.1	Brc1ccc(N2O[C@H]3C=C[C@@H]2C3)nc1	i	-2.4
-6.8	-4.3	-3.5	Cc1ccc(-c2ccc3c(c2)O[C@@H](CN(C)Cc2ccc(F)cc2)[C@@H](C)CN([C@@H](C)CO)S3(=O)=O)cc1	i	5.6
-1.4	-6.2	0.4	C[C@H]1CN([C@@H](C)CO)C(=O)c2cccc(NC(=O)c3ccc(-c4nccs4)cc3)c2O[C@H]1CN(C)C(=O)Nc1ccccc1	i	-2.7
-1.4	1.6	1.9	C[C@@H]1CN([C@@H](C)CO)C(=O)CCCn2cc(nn2)CO[C@H]1CN(C)S(=O)(=O)c1ccccc1F	i	0.2&0.6&-1.7
-2.0	-10.9	2.2	COC(=O)C1(C)COP(=O)(NC23CC4CC(CC(C4)C2)C3)OC1 (stereo not given)	i	-1.9
4.0	4.0	0.5	Cc1noc(C)c1S(=O)(=O)Nc1ccc2c(c1)CC(=O)N([C@@H](C)CO)C[C@@H](C)[C@H](CN(C)S(=O)(=O)c1c(C)noc1C)O2	i	1.5
3.1	9.1	1.5	CC(C)C[C@@H](CN)NC(=O)c1nc[nH]c1C(=O)N[C@@H](Cc1ccccc1)C(=O)CNC[C@H](C)NC(=O)c1nc[nH]c1C(=O)N[C@@H](CC(C)C)C(=O)O	i	1.1
9.2	9.8	-0.8	CC1=C(C(=O)N2CCOCC2)CC(CC(=O)NC2CC2)C(=O)N1Cc1ccc(C(C)(C)C)cc1 (stereo not given)	i	1.7
3.0	6.6	4.1	CN(C)c1cc2c3ccccc3n(C)c2cc1N	.	27.7*
0.1	-8.5	2.1	CC(=O)N(C)C[C@@H]1Oc2cc(C#Cc3ccncc3)ccc2S(=O)(=O)N([C@@H](C)CO)C[C@H]1C	i	-2.0
-0.3	5.7	2.8	COc1ccc(CN(C)C[C@@H]2OCc3cnnn3CCCC(=O)N([C@H](C)CO)C[C@@H]2C)cc1	i	-0.8
-0.8	-1.8	-1.0	CO[C@@H]1CN(C)C(=O)c2cc(NS(=O)(=O)CC(F)(F)F)ccc2OC[C@@H](C)N(Cc2cccnc2)C[C@@H]1C	i	4.6
-0.7	-0.3	-1.6	COc1ccc(NC(=O)Nc2ccc3c(c2)CC(=O)N([C@@H](C)CO)C[C@@H](C)[C@H](CN(C)C(=O)Nc2ccc(F)cc2)O3)cc1	i	-2.3
-0.9	-15.0	-3.0	CCCCn1c(N)c(N(Cc2ccccc2OC)C(=O)C(C)Oc2cccc(Cl)c2)c(=O)[nH]c1=O (stereo not given)	i	1.4
0.8	-3.7	-0.9	O=C(C[C@H]1CC[C@H]2[C@@H](COC[C@@H](O)CN2S(=O)(=O)c2cccc(Cl)c2)O1)NCc1ccncn1	i	-1.0
-0.8	-32.6	35.7	COc1ccc(CN(C)C[C@@H]2OCCCC[C@@H](C)Oc3ccc(NC(=O)Nc4ccc5c(c4)OCO5)cc3C(=O)N([C@@H](C)CO)C[C@@H]2C)cc1	i	4.4
-11.2	-15.0	-4.0	CC12CCC3c4ccc(O)cc4CCC3C1CC(=NO)C2O (stereo not given)	i	-6.0
1.8	0.7	-1.3	O=C(N[C@@H]1CC[C@@H](CCNS(=O)(=O)c2ccc(F)cc2)O[C@H]1CO)C1CCOCC1	i	1.7

Structures above printed as active in MLL AF4-AF9 inh:
Ecoli rRNA inh	Ecoli rRNA inh OD600	Ecoli rRNA inh RFP	SMILES	FGF22 binding	MLL AF4-AF9 inh
3.0	6.6	4.1	CN(C)c1cc2c3ccccc3n(C)c2cc1N	.	27.7*

The results go on.
Ecoli rRNA inh	Ecoli rRNA inh OD600	Ecoli rRNA inh RFP	SMILES	FGF22 binding	MLL AF4-AF9 inh
0.1	-18.3	-1.3	C[C@@H]1CN([C@H](C)CO)C(=O)c2cc(NS(=O)(=O)c3cccs3)ccc2O[C@@H](C)CCCCO[C@@H]1CN(C)Cc1ccccc1	i	6.1
-0.4	-1.6	-1.4	CN1C(=O)c2cc(NC(=O)c3cccs3)ccc2OC[C@H]2O[C@H](CC(=O)O)CC[C@H]21	i	-2.3
3.2	12.8	-4.4	C[C@@H]1CN([C@H](C)CO)C(=O)c2cccc(NS(=O)(=O)c3cn(C)cn3)c2O[C@@H]1CN(C)S(=O)(=O)c1ccc(F)cc1	i	-15.3
2.3	5.2	-2.9	CO[C@@H]1CN(C)C(=O)c2ccc(NC(C)=O)cc2OC[C@@H](C)N(Cc2nccs2)C[C@H]1C	i	-1.1
-7.4	-7.3	-1.0	C[C@H](CO)N1C[C@H](C)[C@H](CN(C)Cc2ccc(Cl)c(Cl)c2)Oc2c(NS(=O)(=O)c3ccc(F)cc3)cccc2C1=O	i	3.2
2.9	8.5	-1.6	C[C@H](O)C#Cc1cnc2c(c1)C(=O)N([C@@H](C)CO)C[C@H](C)[C@H](CN(C)C(=O)c1ccc(F)cc1)O2	i	-1.1
-0.4	-4.6	-4.1	O=S(=O)(N[C@@H]1CC[C@@H](CCn2cc(-c3cccnc3)nn2)O[C@H]1CO)c1ccccc1	i	-0.5
2.8	6.2	0.5	O=C(Nc1cccc(F)c1)N1C[C@@H]2[C@H](c3ccccc31)[C@@H](CO)N2C(=O)c1cccnc1	i	-1.3
2.5	1.8	1.6	CC=Cc1ccc2n(c1=O)C[C@H]1[C@H](CO)[C@@H](C(=O)NCC3CC3)N(Cc3ccccn3)[C@@H]21 (mixture of isomers)	i	-1.6
12.6	-3.8	15.8	Cc1noc(C)c1NC(=O)N[C@H]1CC[C@@H](CCNC(=O)C2CC2)O[C@@H]1CO	i	-1.4
-8.4	0.5	4.1	O=C(c1ccccn1)N1CC[C@@H]2[C@H]1c1cc(-c3ccc(F)cc3)ccc1N[C@@H]2CO	i	-7.5
-3.8	-3.7	-1.1	CC(=O)N(C)C[C@@H]1Oc2cc(C#CC(C)C)ccc2S(=O)(=O)N([C@H](C)CO)C[C@H]1C	i	-17.1
8.2	4.3	-2.6	OC[C@@H]1CN(Cc2ccncc2)C[C@H](n2cnc3c(N4CCCC4)ncnc32)O1	i	-1.2
-1.7	1.1	-0.1	Cc1noc(C)c1NC(=O)Nc1ccc2c(c1)C(=O)N([C@@H](C)CO)C[C@H](C)[C@H](CN(C)S(=O)(=O)c1cn(C)cn1)O2	i	-2.1
-1.8	-1.7	-2.2	Cc1ccc(S(=O)(=O)N(C)C[C@H]2Oc3ccc(NS(=O)(=O)c4ccccc4)cc3CC(=O)N([C@@H](C)CO)C[C@@H]2C)cc1	i	-8.7
3.4	-3.0	3.3	O=C(C[C@H]1C[C@H]2c3cc(NC(=O)Nc4ccccc4)ccc3O[C@H]2[C@H](CO)O1)NC1CCCC1	i	-2.1
4.3	4.9	-1.0	O=C(Nc1cccc(Cl)c1)c1ccc2c(c1)SC1=NS(=O)(=O)CCN12	i	0.2
0.0	6.5	0.1	CCCNC(=O)C[C@@H]1CC[C@@H]2[C@@H](COc3ccc(NC(=O)Nc4c(C)noc4C)cc3C(=O)N2C)O1	i	-0.9
7.7	3.5	-1.9	C[C@@H]1CN([C@@H](C)CO)S(=O)(=O)c2ccc(-c3cncnc3)cc2O[C@H]1CN(C)C(=O)CN(C)C	i	-3.1
3.0	-5.8	1.6	CO[C@@H]1CN(C)C(=O)c2cc(NC(=O)Cc3ccccc3)ccc2OC[C@@H](C)N(C(C)=O)C[C@H]1C	i	-3.8
4.7	-3.2	0.2	CCCN(C)C[C@H]1OCCCC[C@H](C)Oc2ccc(NS(=O)(=O)c3c(C)noc3C)cc2C(=O)N([C@@H](C)CO)C[C@@H]1C	i	2.8
-1.2	-1.7	-3.9	C[C@H](NC(=O)C[C@@H]1CC[C@H]2[C@H](COc3ccc(NC(=O)C4CCOCC4)cc3C(=O)N2C)O1)c1ccccc1	i	-0.9
4.4	1.8	6.0	COC(=O)[C@]12C[C@H](CC(=O)NCc3ccc(C)o3)C(=O)N(Cc3ccc4c(c3)OCO4)C1=C[C@H](COCc1ccccc1)O[C@@H]2C	i	0.4
-4.4	-11.6	0.1	O=C(C[C@H]1C[C@@H]2c3cc(NC(=O)c4ccc5c(c4)OCO5)ccc3O[C@@H]2[C@@H](CO)O1)NC1CCCC1	i	-1.6
2.9	2.4	0.0	O=C(C[C@H]1CC[C@@H]2[C@H](COC[C@@H](O)CN2S(=O)(=O)c2ccccc2)O1)NCc1ccc2c(c1)OCO2	i	10.3
10.0	21.8	10.4	O=C(CCN1CCCCC1)c1cccc(Cl)c1	i	0.1
-4.5	-5.4	0.5	CCCC(=O)Nc1ccc2c(c1)C(=O)N(C)[C@H]1CC[C@H](CC(=O)NCc3ccccc3Cl)O[C@@H]1CO2	i	-0.2
1.6	6.4	-0.8	CC1(C(=O)Nc2ccc3c(c2)OCCO3)CCC(=O)N1CC(F)(F)F (stereo not given)	i	-1.0
-5.1	-9.8	4.0	COc1ccc(CN(C)C[C@@H]2Oc3ccc(NC(=O)NC4CCCCC4)cc3CC(=O)N([C@@H](C)CO)C[C@H]2C)cc1	i	8.9
1.0	2.0	0.5	COc1ccccc1CN1C[C@@H](C)[C@@H](OC)CN(C)C(=O)c2cc(NC(C)=O)ccc2OC[C@@H]1C	i	2.5
-52.9	-76.2	-14.6	N#C[C@@H]1[C@H](c2ccc(C#Cc3ccccc3F)cc2)[C@@H](CO)N1C(=O)c1cccnc1	i	-0.5
-61.8	-80.3	-17.4	NC(c1ccccc1)c1csc(NC(=O)Nc2cccc(Cl)c2)n1 (stereo not given)	i	11.8
1.2	0.1	-3.9	COc1ccc(S(=O)(=O)Nc2ccc3c(c2)CC(=O)N([C@@H](C)CO)C[C@H](C)[C@@H](CN(C)C(=O)Nc2ccc4c(c2)OCO4)O3)cc1	i	-0.1
-18.7	-49.2	25.4	Cc1ccc(S(=O)(=O)Nc2ccc3c(c2)CC(=O)N([C@H](C)CO)C[C@H](C)[C@@H](CN(C)CC2CCCCC2)O3)cc1	i	9.0
1.2	-10.8	-0.4	O=C(CC1CC1)N1[C@H](CO)[C@@H](c2ccccc2)C12CN(Cc1cccnc1)C2	i	3.3
-1.1	-17.3	0.3	C/C=C/c1ccc2c(c1)O[C@H](CN(C)C(=O)Nc1ccccc1)[C@@H](C)CN([C@H](C)CO)S2(=O)=O	i	1.1
3.5	6.7	2.0	O=C(CCN1CCCCC1)NCC[C@@H]1CC[C@H](NS(=O)(=O)c2cccc(Cl)c2)[C@H](CO)O1	i	-0.8
-0.4	-0.1	4.1	CC(=O)N(C)C[C@@H]1Oc2cc(-c3ccc(C)cc3)ccc2S(=O)(=O)N([C@H](C)CO)C[C@@H]1C	i	-1.8
0.3	6.6	-1.6	CN1C(=O)c2cc(NC(=O)Cc3cccs3)ccc2OC[C@H]2O[C@@H](CC(=O)N[C@H]3CCN(Cc4ccccc4)C3)CC[C@H]21	i	6.2

Retrieved by compound from the entries so far:
Ecoli rRNA inh	Ecoli rRNA inh OD600	Ecoli rRNA inh RFP	SMILES	FGF22 binding	MLL AF4-AF9 inh
1.6	6.4	-0.8	CC1(C(=O)Nc2ccc3c(c2)OCCO3)CCC(=O)N1CC(F)(F)F (stereo not given)	i	-1.0
-1.1	-17.3	0.3	C/C=C/c1ccc2c(c1)O[C@H](CN(C)C(=O)Nc1ccccc1)[C@@H](C)CN([C@H](C)CO)S2(=O)=O	i	1.1
1.2	0.1	-3.9	COc1ccc(S(=O)(=O)Nc2ccc3c(c2)CC(=O)N([C@@H](C)CO)C[C@H](C)[C@@H](CN(C)C(=O)Nc2ccc4c(c2)OCO4)O3)cc1	i	-0.1
3.5	6.7	2.0	O=C(CCN1CCCCC1)NCC[C@@H]1CC[C@H](NS(=O)(=O)c2cccc(Cl)c2)[C@H](CO)O1	i	-0.8
-61.8	-80.3	-17.4	NC(c1ccccc1)c1csc(NC(=O)Nc2cccc(Cl)c2)n1 (stereo not given)	i	11.8
1.2	-10.8	-0.4	O=C(CC1CC1)N1[C@H](CO)[C@@H](c2ccccc2)C12CN(Cc1cccnc1)C2	i	3.3

Screens as filed in PubChem.

These rows are one share of the data; rates above refer to the full screens.
